From PubChem
Vaccinia inh = blocks a specific stage of Vaccinia orthopoxvirus infection; hit rate 0.01% among 89,000; AID 1053133; activity change (mCherry), % (no concentration beside the values); Vaccinia-infected cells, mCherry/Venus stage reporter fluorescence; hits give low values; some inactives read as strong as hits;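 active = mCherry past -33% and 40 or more points under the early reporter, replicates agreeing; inconclusive = past -33% without that gap or agreement; tested in A549 cells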;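 also: scaled between vehicle wells and reference inhibitor wells; 23 nL library stock went into each well; one replicate is shown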
Vaccinia inh Venus = also measured in Vaccinia inh; calls as there; activity change (Venus), %; measured here: Venus reporter, other viral stage;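 negative = less Venus signal; first of two replicates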
Numbers without * were called inactive; ? = inconclusive; · = no result given; & = joins results of further samples. Some of the compounds tested; rates above refer to the full screens.

compound	Vaccinia inh	Vaccinia inh Venus
COCC(=O)N1[C@H](C#N)[C@H](c2ccccc2-c2ccccc2)[C@@H]1CO	-18.8	-12.3
C[C@@H]1CCCCO[C@H](CN(C)C)[C@@H](C)CN([C@H](C)CO)C(=O)c2cc(NS(=O)(=O)c3cn(C)cn3)ccc2O1	10.1	3.2
O=C(C[C@H]1CC[C@H]2[C@@H](COC[C@H](O)CN2C(=O)Nc2ccccc2)O1)NCCc1ccncc1	0.2	4.8
C[C@@H]1CN([C@H](C)CO)C(=O)c2cc(NC(=O)Cc3ccccc3)ccc2O[C@@H]1CN(C)C	12.8	8.9
CO[C@@H]1CN(C)C(=O)c2ccc(NC(=O)C3CCCC3)cc2OC[C@@H](C)N(CC2CC2)C[C@@H]1C	-5.1	-8.1
COc1ccc(CN(C)C[C@@H]2OCCCC[C@@H](C)Oc3ccc(NS(=O)(=O)c4ccccc4)cc3C(=O)N([C@@H](C)CO)C[C@H]2C)cc1	-4.8	-10.0
C[C@@H]1CN([C@H](C)CO)C(=O)c2cccc(NC(=O)C3CCCCC3)c2O[C@H]1CN(C)CC1CCCCC1	3.7	2.3
N#C[C@H]1[C@H](c2ccccc2-c2cccc(F)c2)[C@H](CO)N1C(=O)C1CC1	-3.5	-4.9
COc1ccccc1-c1cn(CC[C@H]2CC[C@H](NC(=O)NC(C)C)[C@@H](CO)O2)nn1	4.2	-0.2
COc1cccc(S(=O)(=O)N2CCCCN3[C@H](CO)[C@H](c4ccc(-c5cncnc5)cc4)[C@@H]3C2)c1	14.9	-9.7
CCCN1C[C@@H](C)[C@H](OC)CN(C)C(=O)c2ccc(NC(=O)C3CC3)cc2OC[C@@H]1C	7.7	16.4
CCCC#Cc1ccc2c(c1)O[C@@H](CN(C)S(C)(=O)=O)[C@@H](C)CN([C@@H](C)CO)S2(=O)=O	-6.8	-10.2
COc1ccc2c3c([nH]c2c1)[C@H](CO)N(C(=O)NC(C)C)CC31CN(C(=O)c2cccnc2)C1	23.3	12.2
C[C@H]1CCCCO[C@H](CN(C)C(=O)Nc2ccc(F)cc2)[C@@H](C)CN([C@@H](C)CO)C(=O)c2cc(NC(=O)Nc3ccc(F)cc3)ccc2O1	-12.6	-11.6
C[C@@H]1CN([C@H](C)CO)C(=O)c2cccc(NC(=O)c3ccc(-c4nccs4)cc3)c2O[C@@H]1CN(C)Cc1ccc(C(F)(F)F)cc1	-22.5	-16.6
C[C@H](O)C#Cc1ccc2c(c1)O[C@H](CN(C)C(=O)Cc1ccccn1)[C@H](C)CN([C@@H](C)CO)S2(=O)=O	16.0	8.3
C/C=C/c1ccc([C@H]2[C@@H](CO)N3CCCCN(S(=O)(=O)c4cccc(C)c4)C[C@@H]23)cc1	-16.9	-31.2
COc1ccc2c3c([nH]c2c1)[C@@H](CO)N(C(=O)c1ccccc1)CC31CCN(Cc2cccnc2)CC1	3.6	-4.0
COc1ccccc1-c1cn(CC[C@H]2CC[C@@H](NC(=O)NC(C)C)[C@H](CO)O2)nn1	11.4	7.6
CCC(=O)Nc1ccc2c(c1)C(=O)N(C)C[C@@H](OC)[C@H](C)CN[C@@H](C)CO2	-1.9	-2.6
O=C(C[C@@H]1CC[C@H]2[C@@H](COC[C@H](O)CN2S(=O)(=O)c2ccccc2F)O1)NCc1ccccc1Cl	16.2	6.6
CCCNC(=O)N[C@@H]1CC[C@@H](CCn2cc(C3CCCCC3)nn2)O[C@H]1CO	2.5	15.8
C[C@H]1CN([C@@H](C)CO)C(=O)c2cccc(NC(=O)Nc3ccccc3)c2O[C@H]1CN(C)Cc1ccc(C(=O)Nc2ccccc2N)cc1	4.8	3.5
O=C(C[C@@H]1CC[C@@H](NC(=O)Nc2ccc3c(c2)OCO3)[C@H](CO)O1)NCc1ccccc1	16.2	16.0
COc1ccc(S(=O)(=O)N(C)C[C@H]2Oc3c(NS(=O)(=O)c4cn(C)cn4)cccc3C(=O)N([C@@H](C)CO)C[C@H]2C)cc1	3.5	1.9
COc1cccc(NC(=O)N2CC(=O)N3[C@H](CO)[C@H](c4ccc(C#CCC5CCCC5)cc4)[C@@H]3C2)c1	-11.7	0.4
C[C@H](CO)N1C[C@H](C)[C@H](CN(C)Cc2ccc(C(=O)O)cc2)Oc2ccc(NC(=O)Nc3cccc4ccccc34)cc2CC1=O	13.3	4.3
O=C(Cc1ccccc1)N[C@H]1C=C[C@@H](CC(=O)N2CCCCC2)O[C@@H]1CO	-1.4	9.7
CC(=O)N(C)C[C@@H]1Oc2ncc(C#C[C@H](C)O)cc2C(=O)N([C@H](C)CO)C[C@H]1C	21.8	5.3
CC(C)C#Cc1cnc2c(c1)C(=O)N([C@@H](C)CO)C[C@H](C)[C@@H](CN(C)C(=O)CCN1CCCCC1)O2	4.3	1.0
CCCC#Cc1cnc2c(c1)C(=O)N([C@H](C)CO)C[C@@H](C)[C@H](CN(C)C(=O)c1ccccc1)O2	-25.6	-15.5
CC(=O)N1[C@@H]2c3ccc(C4=CCCCC4)c(=O)n3C[C@H]1[C@H](CO)[C@H]2C(=O)NC1CCCC1	2.0	1.0
C[C@@H]1CN([C@@H](C)CO)C(=O)c2cccc(NC(=O)Nc3ccccc3)c2O[C@H]1CN(C)C(=O)Nc1cccc2ccccc12	7.5	17.1
COCC1=C([C@H](O)c2ccccc2)[C@H](CO)n2c(=O)n(-c3ccccc3)c(=O)n2C1	22.4	14.8
O=C(C[C@H]1C=C[C@@H](NC(=O)C2CCOCC2)[C@@H](CO)O1)NCC1CCCCC1	8.7	1.0
C[C@@H]1CCCCO[C@@H](CN(C)CC2CC2)[C@@H](C)CN([C@H](C)CO)C(=O)c2cc(NC(=O)C3CCCCC3)ccc2O1	42.9	0.8
CCCNC(=O)Nc1ccc2c(c1)C(=O)N(C)C[C@H](OC)[C@H](C)CN(Cc1ccc(-c3ccccn3)cc1)[C@H](C)CO2	-16.6	-14.1
C[C@@H]1CN([C@@H](C)CO)C(=O)c2cc(NS(=O)(=O)c3ccc(F)cc3)ccc2O[C@@H](C)CCCCO[C@@H]1CN(C)C(=O)Nc1ccc2c(c1)OCO2	-15.5	-15.2
CN(C)CCCNC(=O)C[C@@H]1CC[C@H]2[C@H](COc3ccc(NC(=O)C4CCC4)cc3C(=O)N2C)O1	21.7	13.6
CO[C@@H]1CN(C)C(=O)c2ccc(NS(C)(=O)=O)cc2OC[C@@H](C)N(CCC(F)(F)F)C[C@H]1C	6.7	5.6

Carrying on:
Molecule | Vaccinia inh | Vaccinia inh Venus
Cc1ccccc1S(=O)(=O)N1CC(=O)N2[C@H](CO)[C@H](c3ccc(C#CC4CC4)cc3)[C@H]2C1 | -4.2 | -5.2
C[C@H]1CN([C@@H](C)CO)C(=O)c2cc(NS(=O)(=O)c3cccs3)ccc2O[C@H]1CN(C)S(=O)(=O)c1ccc(Cl)cc1 | 0.2 | -4.7
COc1ccc(S(=O)(=O)Nc2ccc3c(c2)OC[C@@H](C)NC[C@H](C)[C@H](OC)CN(C)C3=O)cc1 | 12.1 | 8.2
CO[C@@H]1CN(C)C(=O)c2cc(NC(=O)c3ccc4c(c3)OCO4)ccc2OC[C@H](C)N(CC2CC2)C[C@@H]1C | -14.7 | -2.0
C[C@@H]1CN([C@@H](C)CO)C(=O)c2cccc(NC(=O)C3CC3)c2O[C@H]1CN(C)C(=O)Nc1ccc(C(F)(F)F)cc1 | 7.6 | 12.9
C[C@@H]1CCCCO[C@H](CN(C)C)[C@H](C)CN([C@H](C)CO)C(=O)c2cc(NS(=O)(=O)c3cn(C)cn3)ccc2O1 | 21.9 | 15.6
CC(=O)N(C)C[C@H]1Oc2cc(C#Cc3ccncc3)ccc2S(=O)(=O)N([C@H](C)CO)C[C@@H]1C | -9.5 | 3.3
C[C@H](CO)N1C[C@H](C)[C@H](CN(C)S(=O)(=O)c2ccccc2)Oc2ccc(NC(=O)Cn3cnnn3)cc2C1=O | -4.5 | -2.8
O=C(c1ccc(F)cc1)N1C[C@H]2[C@@H](c3ccccc31)[C@@H](CO)N2Cc1ccc2c(c1)OCO2 | -9.5 | -4.6
C[C@@H]1CN([C@@H](C)CO)C(=O)c2cccc(NC(=O)c3ccncc3)c2O[C@H]1CN(C)S(=O)(=O)c1ccc(F)cc1 | 4.7 | 5.0
COc1ccccc1C(=O)Nc1ccc2c(c1)C(=O)N(C)C[C@@H](OC)[C@H](C)CN(CC1CC1)[C@H](C)CO2 | -30.5 | -23.5
C[C@H](CO)N1C[C@H](C)[C@H](CN(C)C(=O)c2ccccn2)Oc2ncc(-c3ccccc3)cc2C1=O | 1.3 | 7.8
COc1ccc(S(=O)(=O)N(C)C[C@H]2OCCCC[C@@H](C)Oc3ccc(NS(C)(=O)=O)cc3C(=O)N([C@@H](C)CO)C[C@@H]2C)cc1 | 6.4 | -1.2
O=C(N[C@@H]1C=C[C@H](CC(=O)N2CCc3ccccc3C2)O[C@@H]1CO)C1CC1 | -8.4 | 13.2
C[C@H]1CN([C@@H](C)CO)C(=O)c2c(c3ccccc3n2C)-c2ccccc2CO[C@H]1CN(C)S(=O)(=O)c1ccccc1 | -32.4 | -25.4
Cc1cccc(S(=O)(=O)N2C[C@@H]3[C@H](c4ccccc42)[C@H](CO)N3Cc2cccnc2)c1 | -9.9 | -0.2
C[C@H](CO)N1C[C@H](C)[C@H](CN(C)S(=O)(=O)c2ccc(F)cc2)Oc2ccc(NC(=O)Nc3ccc4c(c3)OCO4)cc2CC1=O | -19.2 | -14.5
COc1ccc(S(=O)(=O)Nc2ccc3c(c2)C(=O)N([C@@H](C)CO)C[C@H](C)[C@H](CN(C)S(=O)(=O)c2c(C)noc2C)OCCCC[C@@H](C)O3)cc1 | -16.5 | -14.1
C[C@H]1CN([C@@H](C)CO)C(=O)Cc2cc(NS(=O)(=O)c3ccccc3)ccc2O[C@H]1CN(C)Cc1ccc2c(c1)OCO2 | -9.3 | 0.1
O=C(Nc1cc(F)ccc1F)N1C[C@H]2[C@@H](c3ccccc31)[C@@H](CO)N2CC1CCCC1 | -0.3 | 3.0
O=C(NC1CCCC1)N1CCCCN2[C@@H](CO)[C@H](c3ccc(-c4cncnc4)cc3)[C@@H]2C1 | 23.3 | 0.8
COc1cccc(S(=O)(=O)Nc2ccc3c(c2)C(=O)N(C)C[C@@H](OC)[C@H](C)CN(C(=O)Cc2cccnc2)[C@@H](C)CO3)c1 | 19.1 | 4.7
C[C@H]1CN([C@@H](C)CO)C(=O)c2cc(-c3ccncc3)cnc2O[C@H]1CN(C)C(=O)c1ccncc1 | 20.8 | 13.9
CCS(=O)(=O)N1[C@H](C#N)[C@@H](c2ccc(C#Cc3ccccc3F)cc2)[C@@H]1CO | -33.9 | -19.6
CCCNC(=O)[C@H]1[C@H](CO)[C@H]2Cn3c(ccc(C4=CCCCC4)c3=O)[C@H]2N1Cc1ccccc1F | -26.2 | -17.2
O=C(C[C@@H]1C=C[C@@H](NC(=O)Nc2ccc(C(F)(F)F)cc2)[C@H](CO)O1)NCc1cc(F)cc(F)c1 | -13.0 | -7.6
COc1ccc(CN(C)C[C@H]2Oc3ccc(NC(=O)Nc4c(C)noc4C)cc3CC(=O)N([C@@H](C)CO)C[C@H]2C)cc1 | 12.5 | 10.4
C[C@H]1CN([C@@H](C)CO)C(=O)c2cccc(NC(=O)Nc3ccc(C(F)(F)F)cc3)c2O[C@@H]1CN(C)C(=O)NC1CCCCC1 | ? | ·
Cc1ccccc1S(=O)(=O)N1[C@H](CO)[C@@H](c2ccc(C#CC3CCCCC3)cc2)[C@@H]1C#N | 3.4 | 4.6
O=C(NCC1CC1)[C@H]1[C@H](CO)[C@H]2Cn3c(ccc(-c4cccnc4)c3=O)[C@@H]1N2C(=O)C1CCCCC1 | 13.6 | 11.1
CO[C@H]1CN(C)C(=O)c2ccc(NC(=O)C3CC3)cc2OC[C@@H](C)N(C(C)=O)C[C@H]1C | 8.5 | 4.1
COCC(=O)N1C[C@H](C)[C@H](OC)CN(C)C(=O)c2ccc(NC(=O)NC(C)C)cc2OC[C@H]1C | 0.8 | -4.0
COc1ccc2c3c([nH]c2c1)[C@H](CO)N(C(=O)Nc1ccc(F)cc1)CC31CN(Cc2cc(F)ccc2F)C1 | ? | ·
C[C@@H]1CN([C@H](C)CO)C(=O)CCCn2cc(nn2)CO[C@H]1CN(C)S(=O)(=O)c1ccc(F)cc1 | -4.0&9.9 | 1.0&8.5
O=C(C[C@H]1C[C@@H]2c3cc(NC(=O)C4CCOCC4)ccc3O[C@@H]2[C@@H](CO)O1)NC1CCCCC1 | 18.1 | 12.2
C[C@H]1CN([C@@H](C)CO)C(=O)Cc2cc(NC(=O)Cc3ccccc3)ccc2O[C@@H]1CN(C)S(=O)(=O)c1ccc(Cl)cc1 | -19.1 | -23.3
CNC(=O)C[C@@H]1CC[C@H]2[C@@H](COc3ccc(NC(=O)Nc4ccc(C)cc4)cc3C(=O)N2C)O1 | 11.7 | 14.5
CNC[C@@H]1Oc2ccc(NC(=O)Nc3ccccc3)cc2C(=O)N([C@@H](C)CO)C[C@@H]1C | 10.4 | 6.0
C[C@H](CO)N1C[C@H](C)[C@H](CN(C)C)Oc2cc(-c3ccc(C(=O)N(C)C)cc3)ccc2S1(=O)=O | 13.0 | -0.4

Reprinted at random: 5 records from the list
Molecule | Vaccinia inh | Vaccinia inh Venus
CO[C@@H]1CN(C)C(=O)c2cc(NC(=O)c3ccc4c(c3)OCO4)ccc2OC[C@H](C)N(CC2CC2)C[C@@H]1C | -14.7 | -2.0
CCCC#Cc1cnc2c(c1)C(=O)N([C@H](C)CO)C[C@@H](C)[C@H](CN(C)C(=O)c1ccccc1)O2 | -25.6 | -15.5
C[C@H]1CN([C@@H](C)CO)C(=O)c2cc(NS(=O)(=O)c3cccs3)ccc2O[C@H]1CN(C)S(=O)(=O)c1ccc(Cl)cc1 | 0.2 | -4.7
CC(=O)N(C)C[C@H]1Oc2cc(C#Cc3ccncc3)ccc2S(=O)(=O)N([C@H](C)CO)C[C@@H]1C | -9.5 | 3.3
C[C@@H]1CCCCO[C@@H](CN(C)CC2CC2)[C@@H](C)CN([C@H](C)CO)C(=O)c2cc(NC(=O)C3CCCCC3)ccc2O1 | 42.9 | 0.8
